Calb biofilm kill: mixtures killing C. albicans biofilm | inhibition, % at 7.6 µM | 0.02% of 120,000 active | C. albicans biofilm persisters + clotrimazole, fluorescence viability; primary screen in compound mixtures of four per well;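 active means inhibition above 30.3% in the primary screen of four-compound pools, then above 30% when the compound was retested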;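 further: compounds exposed to preformed 24 h biofilms for 48 h; the number belongs to the whole pool; some results filed as inactive read as strong as hits; inactives centre near 12; 0% = biofilm with clotrimazole alone and 100% = kill control; retested singly at about 60 µM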
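Assay system: C. albicans biofilms / Medium: RPMI/MOPS medium, pH 7.0 / Schedule: biofilm formation 24 h, compound exposure 48 h, 37 °C / Measured by: Alamar Blue fluorescence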
An asterisk follows results filed as active.

SMILES	Calb biofilm kill
Cc1ccccc1OCC(O)CN1CCN(C)CC1 (stereo not drawn)	13.4
CC(=O)Cn1nnc2sc(-c3ccccc3)cc2c1=O	22.5
Cc1ccc(-c2nc(C=Nc3cccc(C)c3)c(O)o2)cc1	14.4
CCOC(=O)c1ccc(-c2ccc(C=O)o2)cc1	28.6
O=C(CCc1nnc(-c2ccccc2)o1)NCC1CCN(C2CCCC2)CC1	-3.7
COc1cccc(C(=O)COc2ccccc2N2C(=O)C3C4C=CC(C4)C3C2=O)c1 (stereo not drawn)	16.8
COCCn1c(SCC(=O)Nc2cc(C)nn2-c2ccccc2)nnc1-c1ccncc1	12.9
COC(=O)CC1C(C(=O)OC)ON2OC(C(=O)OC)C(C(=O)OC)C12 (stereo not drawn)	5.6
CN(C)S(=O)(=O)c1cccc(NC(=S)N/N=C/c2cccc(O)c2)c1	17.1
N/C(=N\c1nc(CSc2ccc(Cl)cc2)cc(=O)[nH]1)Nc1ccccc1C(F)(F)F	8.6
CCc1ccc(-c2csc3ncn(CC(=O)NCc4ccco4)c(=O)c23)cc1	24.4
Cc1cc(NC(=O)CCCn2nc([N+](=O)[O-])c(Cl)c2C)no1	7.4
O=C(O)c1cccc(Oc2cccc(Cl)n2)c1	7.3
Cn1cnnc1SCC(=O)NN(c1ccccc1)c1ccccc1	15.3
Cc1cccc(N2CCN(C3=NC(=O)/C(=C\c4cn[nH]c4-c4ccccc4)S3)CC2)c1	15.8
COc1ccc2cc(C(=O)C3CCCN(Cc4ccccn4)C3)ccc2c1 (stereo not drawn)	25.7
O=C(CCCN1C(=O)c2ccccc2C1=O)NCCN1C(=O)S/C(=C\c2cccs2)C1=O	14.4
O=C(O)c1cccc(S(=O)(=O)Nc2cc(Cl)ccc2Cl)c1	14.6
O=C(/C=C/c1cccs1)Nc1ccc(N2CCOCC2)c(S(=O)(=O)Nc2ccccc2Cl)c1	7.4
Clc1ncccc1-c1nnn(-c2ccccc2)n1	13.1
CN1C(C(=O)NCc2ccc(OC(F)(F)F)cc2)CC2Cn3c(nc4cc(Cl)c(Cl)cc43)C21 (stereo not drawn)	17.7
Cc1cccc(N2CCN(C(=O)/C=C/c3cccs3)CC2C)c1 (stereo not drawn)	22.0
COc1cc(C2C3=C(CC(C)(C)CC3=O)OC(N)=C2[N+](=O)[O-])ccc1O (stereo not drawn)	17.6
COc1ccc(-c2nc3c(n2O)CCc2c-3no[n+]2[O-])cc1	12.8
Cc1nc(-c2cccs2)sc1C(=O)NN	-5.8
N=C1/C(=C/c2cccn2-c2ccc([N+](=O)[O-])cc2)C(=O)N=C2SC=CN12	9.0
O=C(Cc1cccs1)Nc1ccccc1-c1nc2ccccc2[nH]1	17.2
CCOCCCNC(=O)c1ccc(N2CCOCC2)c(NS(=O)(=O)c2ccc(OC)cc2)c1	4.6
COC(=O)c1ccc(Cn2cnc3c(cnn3-c3ccc(C)c(C)c3)c2=O)o1	3.1
CCOc1ccc(NS(=O)(=O)c2ccc(NC(=O)c3cccnc3)c(OC)c2)cc1	6.3
CCOC(=O)N1c2ccccc2Sc2ccccc21	-0.4
CCOC(=O)Cc1csc(NC(=O)COc2ccc(C)c(C)c2)n1	2.2
Cc1ccc2c(CSc3nncn3C)cc(=O)oc2c1C	6.5
Cc1cc(SCC(=O)N(C)CC(=O)Nc2ccc(F)cc2)nc2ccccc12	13.3
COC(=O)c1sc(S(=O)(=O)NC(C)C(=O)O)c(C(=O)OC)c1C (stereo not drawn)	3.4
O=C(Nc1ccc(Cc2ccncc2)cc1)c1cccc([N+](=O)[O-])c1	18.1
CCCNC(=O)C(=O)N/N=C/c1ccc(OCc2ccccc2)cc1	17.4
Cn1ncc2c(Nc3ccc([N+](=O)[O-])cc3)nc(Cl)nc21	17.6
CCN(CC)c1ccc(/C=C/c2cc(-c3ccccc3)c3ccccc3n2)cc1	15.0
Cc1c(O)ccc(/C=N/Nc2nc(-c3cccnc3)nc3ccccc23)c1O	7.1
CC/C(=N\NC(=O)COc1ccc(Br)cc1)c1ccc(OC)c(OC)c1	8.2
CC(=O)Nc1ccccc1C(=O)C(=O)Nc1cccc(C(=O)NCc2ccc(C)cc2)c1	22.6
C/C=C/c1cc(CN2CCN(c3ccccc3)CC2)c(O)c(OC)c1	11.2
O=C(NCC(c1ccco1)N1CCN(c2ccccc2)CC1)OCc1ccccc1 (stereo not drawn)	19.8
Cc1ccc(-c2cc(C(F)(F)F)c(C#N)c(=O)[nH]2)cc1	4.8
COCCCNC(=S)Nc1cccc2ncccc12	27.3
N#Cc1ccc(N2CCN(c3ccc(F)cc3)CC2)cc1	16.9
O=C(c1ccc([N+](=O)[O-])cc1[N+](=O)[O-])n1cnc2ccccc21	9.5
CNC(=S)N(CCc1c(C)[nH]c2ccc(OC)cc12)Cc1cc(OC)c(OC)c(OC)c1	3.7
CC1CCc2sc(C(=O)OC(C)C(=O)Nc3ncc(Cl)cc3Cl)cc2C1 (stereo not drawn)	24.8
CCCCNC(=S)Nc1ccc(-c2nc3ccc(C)cc3s2)cc1	13.1
CCCCC(CC)C(=O)Nc1ccc(Nc2ccccc2)cc1 (stereo not drawn)	-8.7
CC1Cc2nc(SCC(=O)Nc3ccc(F)cc3F)n(C)c(=O)c2S1 (stereo not drawn)	9.5
COc1ccc(Cl)cc1S(=O)(=O)Oc1ccc(NC(C)=O)cc1	9.6
COC(=O)c1nn(-c2cccc(C)c2)c2nnc(Cc3ccccc3)c(=O)n12	14.1
CCCNC(=O)COc1nc2ccccc2nc1N1CCOCC1	15.4
CC(C)NC(=O)CSc1nccc(-c2cccs2)n1	14.6
CN(C)S(=O)(=O)Oc1ccsc1C(=O)Nc1ccc(Br)cc1	17.3
O=C(O)CCc1ccc(-c2cccs2)n1CC(=O)Nc1ccccc1C(F)(F)F	9.9
COc1ccc(OC)c(Nc2nc(N)c([N+](=O)[O-])c(NCc3ccccc3)n2)c1	18.5

Some of these compounds in order of number of heavy atoms, smallest number first:
SMILES	Calb biofilm kill
N#Cc1ccc(N2CCN(c3ccc(F)cc3)CC2)cc1	16.9
CN(C)S(=O)(=O)Oc1ccsc1C(=O)Nc1ccc(Br)cc1	17.3
CCCCC(CC)C(=O)Nc1ccc(Nc2ccccc2)cc1 (stereo not drawn)	-8.7
COC(=O)c1nn(-c2cccc(C)c2)c2nnc(Cc3ccccc3)c(=O)n12	14.1

Later entries:
SMILES	Calb biofilm kill
Clc1ccc(C2=Nc3cc(Cl)ccc3OC2)cc1	14.6
C=C(C)CN(CC)C(=O)CC1C(=O)NCCN1C (stereo not drawn)	9.8
CCCCCCN(C(=O)CCCCCN1C(=O)NC(c2ccc(C3CCCCC3)cc2)C(C(=O)OCc2ccccc2)=C1C)C(C(=O)NCCCC)c1ccc(OCC(=O)OC)c(C(=O)OC)c1 (stereo not drawn)	5.5
NC(=S)N/N=C1\CC(n2nnnc2-c2ccccc2Cl)C2COC1O2 (stereo not drawn)	16.8
CCOC(=O)CN1NC2(CCCCCCC2)NC1=S	29.4
COc1ccc(/C=N/NC(=O)c2sc(C)nc2C)cc1	13.2
CCCCCc1c(O)nc(SCCN2CCOCC2)[nH]c1=O	13.3
C/C(=N\NC(=O)c1cc(-c2cccnc2)nc2ccccc12)c1ccc(O)cc1O	14.1
COC(=O)c1cnn(-c2ccccc2)c1-n1cccc1C=O	7.4
O=C(CSc1cccc(C(F)(F)F)c1)NC(=O)c1ccccc1	4.6
COc1ccccc1C(=O)C1CCCN(Cc2cccc3nccnc23)C1 (stereo not drawn)	17.1
CC1CCCN(c2c([N+](=O)[O-])cc(C(=O)O)cc2[N+](=O)[O-])C1 (stereo not drawn)	10.8
O=C(Nc1ccc(C(=O)NC2CCCCC2)cc1)c1cncc(Br)c1	55.4
O=C(COc1ccc2c(c1)CCC2)NCc1ccccc1	10.2
COc1cc(CCCN2C(=O)C(=O)NC[C@@H]2Cc2ccc(O)cc2)cc(OC)c1OC	17.3
Cc1nonc1C1CCCN1C(=O)c1cc(COc2ccc(F)cc2Cl)on1 (stereo not drawn)	15.0
CN(C)S(=O)(=O)c1cccc(-c2nn(-c3ccccc3)cc2/C=C(/C#N)C(=O)NCc2ccco2)c1	12.7
NC(=O)CC(NC(=O)Cc1ccc(Br)cc1)c1ccc(N2CCC(Br)CC2)c([N+](=O)[O-])c1 (stereo not drawn)	17.0
O=C(CSc1ccc(-c2ccccc2)nn1)c1cccs1	9.5
COC(=O)c1ccsc1NC(=O)c1cccc(OC)c1	12.5
CC1=CCC(C(=O)O)C(C(=O)Nc2ccc(-c3nc4ccc(C)cc4s3)cc2)C1 (stereo not drawn)	16.6
O=C(Nc1ccc2nc(-c3cccnc3)[nH]c2c1)C1CCCCC1	10.5
CC1CCN(C(=O)c2cc3nc(C4CC4)cc(C(F)(F)F)n3n2)CC1	20.4
CCNc1ccccc(-c2ccc3ccccc3n2)c1=O	23.3
COc1ccc(C[C@H]2CN3C(=NC[C@@H]3C(C)C)N2CCNC(=O)c2ccc(C)c(Br)c2)cc1	20.0
O=c1[nH]c2cccnc2n1-c1ccc([N+](=O)[O-])cc1	16.6
CC(C)Oc1ccc(CCC(=O)N/N=C/c2ccncc2)cc1	2.4
COC(=O)c1ccc(OC(=O)CS(=O)c2ccccc2[N+](=O)[O-])cc1 (stereo not drawn)	10.2
COc1cc([N+](=O)[O-])ccc1NC(=O)CN1CCN(C(=O)c2ccco2)CC1	9.9
O=C(NCCc1c[nH]c2ccccc12)/C(=C/c1ccco1)NC(=O)c1ccco1	8.4
Cc1ccc(S(=O)(=O)N(CC(=O)NN=C2CCN(C)CC2)c2ccc(F)cc2)cc1	12.2
CCc1ccc(/C=C2\SC(N3CCOCC3)=NC2=O)cc1	13.5
CCOC(=O)C1(Cc2ccccc2)CCN(Cc2nccn2CC)CC1	6.5
COc1ccc2c(c1)c1nc3ccccc3nc1n2CCCN1C(=O)c2ccccc2C1=O	15.1
COc1ccc(C2NN=C(c3ccc(C)cc3)S2)cc1OC (stereo not drawn)	2.3
Cc1nc2ccccc2n1CC(=O)NC1CCCC1	8.7
Cc1ccc(-c2nc(C#N)c(NCCCn3ccnc3)o2)cc1	12.9
COc1cc2c(cc1OC)CN(c1ccc([N+](=O)[O-])cc1C#N)CC2	15.2
N#C/C(=C/c1ccc(-c2ccccc2[N+](=O)[O-])o1)C(N)=O	3.3
COC(=O)c1cc(C)[nH]c2c(C)cc3nc4ccccc4c3c12	10.4
O=C(COC(=O)/C=C/c1cccs1)Nc1cccc(S(=O)(=O)N2CCCC2)c1	5.0
COc1ccc(N2CCN(C(=O)CN(C)S(=O)(=O)c3cc(C)ccc3OC)CC2)cc1	12.0
N#C/C(=C(/O)c1ccc(Cl)c([N+](=O)[O-])c1)c1nc2ccccc2[nH]1	20.9
O=C(COC(=O)C1CCN(/C=C/C(=O)C(F)(F)F)CC1)Nc1ccccc1	7.2
c1ccc(Nc2nc(N3CCNCC3)nc(N3CCOCC3)n2)cc1	11.3
O=c1[nH]c2cc([N+](=O)[O-])c([N+](=O)[O-])cc2[nH]c1=O	8.7
CCN1C(=O)C2(C(C(=O)c3cc4ccccc4o3)=C(O)C(=O)N2CCCN2CCOCC2)c2ccccc21 (stereo not drawn)	27.3
O=C(Nc1ccc2snnc2c1)N1CCCCC1	26.3
CCNC(=S)Nc1cc(C(=O)N2CCCC2)ccc1N1CCCC1	12.6
Cc1cc(N)nc(C)c1C#N	15.4
CC(=O)c1cccc(S(=O)(=O)N(C)C2CCN(C)CC2)c1	15.8
Cc1ccc(S(=O)(=O)n2cnc3cc([N+](=O)[O-])ccc32)c(C)c1	15.8
CC1CC(C)CN(C(=O)CNC(=O)Cn2ccc3ccccc3c2=O)C1 (stereo not drawn)	6.0
COc1cc(NC(=S)NC2CC(C)(C)NC(C)(C)C2)c(OC)cc1Cl	17.6
O=C(CSc1ccc(Cl)cc1)Nc1ccccc1Oc1ccccc1	18.9
COC(=O)c1c(NC(=S)Nc2ccc(F)cc2[N+](=O)[O-])sc2c1CCCCC2	11.0
Cc1ccccc1N1C(=O)CC1(C#N)c1ccc(OCc2ccccc2)cc1 (stereo not drawn)	-9.9
Cc1ccc(OCCOC(=O)Cn2nc(C)c([N+](=O)[O-])c2C)cc1	12.6
COc1cccc(Cn2c(OCC3CCCO3)nc3c2c(=O)n(C)c(=O)n3C)c1 (stereo not drawn)	10.0
NCCCC(=O)O	-5.3
(list continues)
SMILES	Calb biofilm kill
COC(=O)CC1=C(C(=O)OC)C(c2ccc3c(c2)OCO3)C(C#N)=C(N)O1 (stereo not drawn)	11.6
COCCNC(=S)NCCc1ccc(Cl)cc1Cl	13.1
O=C(Nc1ccccc1C(=O)Nc1nnc(C(F)(F)F)s1)c1ccccc1Cl	23.5
Cc1ccc(CNC(=O)COC(=O)CCCOc2ccc(Cl)cc2Cl)cc1	10.9
Cc1c([N+](=O)[O-])cc(S(=O)(=O)Nc2ccncc2)cc1[N+](=O)[O-]	16.3
CCOC(=O)C1CCCN(C(=O)c2sc3nc(-c4ccccc4)cn3c2C)C1 (stereo not drawn)	9.9
O=C(NC(=S)Nc1ccccc1N1CCCCC1)c1ccccc1	6.4
O=C1CN(C(=O)CSc2nc3ccccc3c(=O)n2CCCN2CCOCC2)c2ccccc2N1	24.2

An excerpt of these results, bar-delimited:
SMILES | Calb biofilm kill
CC(=O)Nc1ccccc1C(=O)C(=O)Nc1cccc(C(=O)NCc2ccc(C)cc2)c1 | 22.6
C/C=C/c1cc(CN2CCN(c3ccccc3)CC2)c(O)c(OC)c1 | 11.2
O=C(NCC(c1ccco1)N1CCN(c2ccccc2)CC1)OCc1ccccc1 (stereo not drawn) | 19.8

As entered above.
`COCCNC(=S)NCCc1ccc(Cl)cc1Cl` @ Calb biofilm kill = 13.1
`O=C(NC(=S)Nc1ccccc1N1CCCCC1)c1ccccc1` @ Calb biofilm kill = 6.4

4 compounds picked at random from the list so far, as already listed:
SMILES	Calb biofilm kill
Cc1cc(NC(=O)CCCn2nc([N+](=O)[O-])c(Cl)c2C)no1	7.4
O=C(NC(=S)Nc1ccccc1N1CCCCC1)c1ccccc1	6.4
COc1ccc(-c2nc3c(n2O)CCc2c-3no[n+]2[O-])cc1	12.8
COc1ccc(/C=N/NC(=O)c2sc(C)nc2C)cc1	13.2

Screening data as filed in PubChem BioAssay.

These rows are one share of the data. The share of hits here may be higher or lower than overall.
